HTT prom inh: HTT promoter inhibition | AID 1508623 | HEK293 HTT promoter firefly luciferase reporter (activity 0% = vehicle and -100% = no light), 24 h | hit rate 0.93% among 48,000 | Potency, µM (doses to about 57.5 µM), for the others: at the top dose activity change, negative = inhibition, usual class: inhibitors; active = well fitted inhibition curve with a large enough effect; inconclusive = small, poorly fitted or top-dose-only effect; inactive = no such curve, though single readings can be large or run the other way; note: nearly all actives have a fitted effect of over 50% in size
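Luminescence was read after Dual-Glo reagent and a 10 min room-temperature incubation. Values were normalized to vehicle (0% activity) and zero RLU (-100% activity). Reporter HEK293 cells had been exposed to compounds (up to 57.5 uM final) for 24 h.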
PMP22 txn prim: PMP22 gene transcription modulation. S16 Pmp22-F2sN Schwann cells (luciferase reporters placed in the Pmp22 gene), FLuc/NLuc coincidence luminescence, 24 h. Potency, µM (series often up to 57.5 µM), for inactives: at the top dose activity change, negative = inhibition, actives largely listed as inhibitors. hit rate 2% among 43,000. AID 1508649; active = clear falling dose curves in both reporters; inconclusive = both reporters move, but less clearly or upward; inactive = either reporter flat; the % is the NLuc reporter signal; note: % is set by controls: 0 for no effect and ±100 for the full control effect; some results filed as inactive show a strong effect at the top dose
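S16 Schwann cells carrying FLuc/NLuc coincidence reporter in the Pmp22 3' UTR treated with compound 24 h at 37C; FLuc then NLuc luminescence read sequentially by dual-luciferase reagents.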
* marks the source's active call; other numbers are inactive results; ? = inconclusive; / = no result given; & = joins results of further samples; [ ] = another dose, or the depositor's remark. Potency is the fitted concentration of half-maximal effect. No enrichment for hits; about 2.6% have a hit in one of these screens.

| Compound | HTT prom inh | PMP22 txn prim |
| --- | --- | --- |
| Cc1cc(C)c(NC(=O)c2c(C)nn(-c3ccc(F)cc3)c2-n2cccc2)c(C)c1 | ? | -11% |
| Cc1ccc(-c2ccc(=O)n(CC(=O)Nc3ccc(C(C)C)cc3)n2)cc1 | -8% | 14% |
| Cc1ccc(C(=O)O)cc1NC1(c2ccccc2)C(=O)c2ccccc2C1=O | -3% | -2% |
| CCN(CC)S(=O)(=O)c1ccc(NC(=O)c2cc3ccc4cccnc4c3[nH]2)cc1 | -28% | ? |
| CCCCC(CC)CNC(=O)C1CCN(S(=O)(=O)c2cccc3nsnc23)CC1 (centres undefined) | -12% | -20% |
| O=C(Cn1c(=O)n(Cc2nc(-c3ccccc3)no2)c(=O)c2cc3c(cc21)OCO3)Nc1ccc(Cl)cc1 | -15% | 24% |
| CCC(C)NC(=O)Cn1c(=O)n(-c2ccc(OC)c(OC)c2)c(=O)c2ccccc21 (centres undefined) | -16% | 4% |
| COc1ccc(C(=O)Nc2ccccc2C(=O)OCc2cc(=O)n3c4c(sc3n2)CCCC4)cc1 | -13% | 64% |
| COc1cc(NC(=O)CSc2ncccc2C(=O)OC(C)C)cc(OC)c1 | ? | -31% |
| CC(C)c1cnc2c(c1SCC(=O)Nc1ccc(C(N)=O)cc1)c(=O)n(C)c(=O)n2C | -1% | 3% |
| Cc1c(C(=O)N(C)c2cccc(C(F)(F)F)c2)sc2nc3n(c(=O)c12)CCCCC3 | ? | ? |
| Cc1ccc(Cl)cc1N1CCN(S(=O)(=O)c2cn(C)c(C)n2)CC1 | -11% | 9% |
| COc1ccc(OC)c(CNC(=O)CCc2c(C)nc3c(c2C)c(=O)n(C)c(=O)n3C)c1 | -7% | 0% |
| CCOC(=O)c1c(NC(=O)C(C)Sc2cn(CCNC(=O)c3c(F)cccc3F)c3ccccc23)sc2c1CCC2 (centres undefined) | -21% | -20% |
| Cc1ccccc1CNC(=O)CCC(=O)N1CC2CCCN2c2ccccc21 (centres undefined) | -26% | -15% |
| CCOC(=O)c1c(C)oc2nc(C)nc(N3CCN(c4cc(Cl)ccc4C)CC3)c12 | ? | -4% |
| COc1ccc2c(c1)c1c(c(=O)n(CCc3ccccc3)c(=O)n1Cc1cccc(Cl)c1)n2C | -7% | -6% |
| COc1ccccc1CNc1ccc(-c2nc(-c3cccnc3)no2)cc1[N+](=O)[O-] | 5% | -11% |
| Cc1ccc(Cl)cc1-n1ncc2c(NCCCc3ccccc3)ncnc21 | ? | ? |
| CCc1nn2c(=O)cc(COC(=O)c3ccccc3NC(=O)COc3ccc(C)c(C)c3)nc2s1 | -15% | -66% |
| CCN(c1cccc(C)c1)S(=O)(=O)c1nnc(NC(=O)c2ccccc2Cl)s1 | ? | -68% |
| Cc1nc(-n2nc(C)c(Cc3ccc4c(c3)OCO4)c2C)sc1C(=O)Nc1cccc(Cl)c1 | -5% | ? |
| COc1ccc(CNC(=O)c2nc(SCc3ccccc3F)ncc2Cl)cc1 | ? | -54% |
| COc1cc(NC(=O)c2cc3cc4ccc(OC)c(Cl)c4nc3s2)cc(OC)c1 | -4% | -10% |
| O=C(CCS(=O)(=O)c1cc2c3c(c1)CCN3C(=O)CC2)NCc1ccc(Cl)cc1 | -32% | 50% |
| CN(C)CCCO[C@@H]1[C@H]2OC(C)(C)O[C@H]2O[C@@H]1C(O)CO (some centres undefined) | 9% | / |
| CC1(C(=O)Nc2cccc(Br)c2)Cc2ccccc2C(=O)O1 (centres undefined) | -21% | -10% |
| COc1ccc(-c2nc3cc(C)ccn3c2NC(=O)c2ccc(F)cc2)cc1 | 24% | 2% |
| Cc1oc(-c2ccc(Cl)cc2)nc1CS(=O)CC(=O)NCc1ccc(Cl)cc1 (centres undefined) | ? | -2% |
| COc1ccc(OC)c(CNC(=O)CCn2c(=O)c3cccn3c3ccc(F)cc32)c1 | -4% | -25% |
| Cc1cc(NC(=O)CCc2nc3cccnc3n2-c2ccccc2)ccc1Br | ? | -13% |
| O=C(Nc1ccc2c(c1)CCCN2C(=O)c1cccs1)c1ccccc1 | -17% | ? |

Whole records as entered above.
COc1ccc(-c2nc3cc(C)ccn3c2NC(=O)c2ccc(F)cc2)cc1 reads HTT prom inh: 24%; PMP22 txn prim: 2%
COc1ccc(OC)c(CNC(=O)CCn2c(=O)c3cccn3c3ccc(F)cc32)c1 reads HTT prom inh: -4%; PMP22 txn prim: -25%
CC1(C(=O)Nc2cccc(Br)c2)Cc2ccccc2C(=O)O1 (centres undefined) reads HTT prom inh: -21%; PMP22 txn prim: -10%

Next part.
| Compound | HTT prom inh | PMP22 txn prim |
| --- | --- | --- |
| Cc1ccc2nc(-c3cc(NC(=O)/C=C/c4ccccc4)ccc3Cl)oc2c1 | 30% | -47% |
| COc1cc2[nH]c(=O)n(CCC(=O)N3CCN(c4ccc(Cl)cc4)CC3)c(=O)c2cc1OC | 0% | -27% |
| COc1ccc(-c2noc(N3CCN(c4ccc(Cl)cc4)CC3)n2)cc1OC | -4%[11.5 µM] | -116% |
| Cc1ccc2nc(COc3cccc(NC(=O)Nc4ccc(C)c(Cl)c4)c3)cc(=O)n2c1 | 28% | -4% |
| O=C(O)c1ccc2cc(-c3ccc(O)c(C45CC6CC(CC(C6)C4)C5)c3)ccc2c1 | -18% | / |
| COc1ccccc1C1=Nn2c(nc3sc(C(=O)Nc4ccccc4Cl)c(C)c3c2=O)SC1 | -23% | -17% |
| O=C(O)c1c(-c2ccccc2)oc2ccc(OCc3c(F)cccc3Cl)cc12 | -25% | -91% |
| Oc1ccccc1-c1nc(/C=C/c2ccc(F)cc2)no1 | 33%[activator] | -25% |
| CN(C)c1ccc(NC(=O)CCSc2nc(-c3ccco3)cc(C(F)(F)F)n2)cc1 | 4% | -114% |
| COCCCNC(=O)c1cc(-c2cccnc2)nc2ccccc12 | -22% | -19% |
| CN1c2ccccc2-c2nc(SCC(=O)Nc3ccccc3C(F)(F)F)ncc2S1(=O)=O | -34% | 6% |
| COc1ccc(-c2nnc(SCC(=O)Nc3ccc(C(C)=O)cc3)nc2-c2ccc(OC)cc2)cc1 | 6% | ? |
| O=C(CCn1c(=O)c2ccccc2n(Cc2ccc(Cl)cc2)c1=O)NCc1ccc2c(c1)OCO2 | 0% | -28% |
| O=C(CS(=O)(=O)c1ccc(Cl)cc1)Nc1nc2ccc(Br)cc2s1 | ? | -14% |
| Cc1cccc(NS(=O)(=O)c2ccc3nc(-c4ccccc4)[nH]c3c2)c1C | -28% | ? |
| CCc1ccccc1Nc1ncnc2c1nc1n2CCCC1 | 12% | -4% |
| CCOc1ccc2oc(=O)cc(CN3CCN(C(=O)c4ccc(Cl)cc4)CC3)c2c1 | -25% | ? |
| Cc1c(C(=O)N2CCC(C)CC2)c(S(=O)(=O)Nc2cccc(C#N)c2)c(C)n1C | -22% | ? |
| COc1ccc(CCNC(=O)c2ccc(Cn3c(=O)c4ccccc4n(Cc4cccc(Cl)c4)c3=O)cc2)cc1OC | ? | ? |
| CCC(=O)N1c2ccccc2CC1C(=O)NCCc1ccc(C)cc1 (centres undefined) | 0% | ? |
| CC(=O)Nc1ccc(NC(=O)c2cc3c(=O)n(Cc4cccnc4)ccc3nc2C)cc1 | 2% | -10% |
| N#C/C(=C\c1ccccc1)c1nc(-c2cc3c(ccc4ccccc43)oc2=O)cs1 | 3% | 0% |
| COc1cc(Nc2nc3c(S(=O)(=O)c4cccc(Cl)c4)nnn3c3ccsc23)cc(OC)c1 | ? | ? |
| N#Cc1c[nH]n2c(NC3CCCCC3)c(-c3ccc(F)cc3)nc12 | -6% | -45% |
| O=C(CSc1nc(-c2ccc(F)cc2)nc2c1Cc1ccccc1O2)Nc1cccc(C(=O)O)c1 | -1% | 1% |
| CCc1ccccc1NC(=O)C1CCC(CNS(=O)(=O)c2ccc3c(c2)CC(C)N3C(C)=O)CC1 (centres undefined) | -16% | -12% |
| CN(C)c1ccc(CNC(=O)C2CCN(Cc3cc4ccccc4n3Cc3ccccc3)CC2)cc1 | ? | ? |
| COc1cccc(CNC(=O)N2CCC(CN3CCC(C)CC3)CC2)c1 | -2% | 28% |
| CC(=O)N1CCCc2cc(S(=O)(=O)N3CCC(C(=O)Nc4c(C)cccc4C)CC3)ccc21 | 20µM* | -13% |
| COc1ccc(NC(=O)CCn2c(=O)c3cccn3c3cccnc32)c(OC)c1 | 7% | -13% |
| CC(C)(O)c1cc2nc(-c3cnc(N)nc3)nc(N3CCOCC3)c2s1 | ? | / |
| Cc1c(C(=O)N(Cc2ccc(N(C)C)cc2)CC2CCCO2)oc2ccc(Cl)cc12 (centres undefined) | -3% | 2% |
| CC(C)Oc1ccc(CNC(=O)c2ccc3c(c2)nc2n3CCCCC2)cc1 | 44%[activator] | -18% |
| CCOc1cc(OCC)c(C(=O)CCC(=O)O)cc1OCC | -2% | / |
| CCCCCCCCOc1ccccc1C(=O)Nc1ccc(C(=O)OCC[N+](C)(CC)CC)cc1 | -17%&-11% | / |
| CC(C)c1nc(CN(C)C(=O)N[C@H](C(=O)N[C@@H](Cc2ccccc2)C[C@H](O)[C@H](Cc2ccccc2)NC(=O)OCc2cncs2)C(C)C)cs1 | -20%&-27% | / |
| COc1ccccc1CNC(=O)CN1C(=O)COc2ccc(S(=O)(=O)NC3CCCC3)cc21 | 2% | 6% |
| CO[C@@]1(NC(=O)CSCC#N)C(=O)N2C(C(=O)O)=C(CSc3nnnn3C)CS[C@@H]21 | 12% | / |
| Cc1cccc(C)c1NC(=O)c1ccc(N)cc1 | 3% | / |
| CCc1cccc(C)c1NC(=O)C1CCN(S(=O)(=O)c2cc(Br)cc3c2N(C(C)=O)CC3)CC1 | 13% | -6% |

As a short view, three of the compounds above.
| Compound | HTT prom inh | PMP22 txn prim |
| --- | --- | --- |
| CCOC(=O)c1c(C)oc2nc(C)nc(N3CCN(c4cc(Cl)ccc4C)CC3)c12 | ? | -4% |
| COc1ccc2c(c1)c1c(c(=O)n(CCc3ccccc3)c(=O)n1Cc1cccc(Cl)c1)n2C | -7% | -6% |
| COc1ccccc1CNc1ccc(-c2nc(-c3cccnc3)no2)cc1[N+](=O)[O-] | 5% | -11% |

Remaining list, next part:
| Compound | HTT prom inh | PMP22 txn prim |
| --- | --- | --- |
| CCOc1ccc(-c2oc3ccc(C)cc3c(=O)c2O)cc1 | 37%[activator] | 7% |
| CCc1ccc(CNC(=O)c2cnc3sc4cc(OC)ccc4n3c2=O)cc1 | -2% | -3% |
| COc1ccccc1NC(=O)Cn1c(=O)n(CC(=O)NCc2ccccc2Cl)c(=O)c2sccc21 | -1% | ? |
| CCN(C(=O)Cn1c(=O)nc(-c2ccccc2)c2cc(Cl)ccc21)c1cccc(C)c1 | -4% | 9% |
| Cc1ccc2nc(Cl)c3cc(C(=O)NCCCN(C)Cc4ccccc4)sc3c2c1 | -12% | ? |
| CC(=O)Nc1ccc2nc(SCCOc3ccc(C)cc3)sc2c1 | -6% | -13% |
| Cc1ccc(C(=O)NC2=NC(c3ccc(C)cc3)CC(=O)N2)cc1 (centres undefined) | -14% | -4% |
| COCCn1c(C)cc(O)c(C(c2ccc(OC)cc2)N2CCN(c3ccccc3)CC2)c1=O (centres undefined) | -18% | 7% |
| CC(NC(=O)c1ccc2c(c1)N(Cc1cccc(F)c1)C(=O)c1ccccc1S2)c1ccccc1 (centres undefined) | 0% | 32% |
| CCOc1ccccc1C1C(C(=O)N2CCCCC2)=C(C)Nc2nc3ccccc3n21 (centres undefined) | 1% | -36% |
| O=C(Nc1ccc2nn(-c3ccccc3)nc2c1)c1cc2ccccc2o1 | 11% | ? |
| COc1ccc(N2CC(C(=O)NCc3nnnn3-c3ccc(C)c(C)c3)CC2=O)cc1 (centres undefined) | 6% | -3% |
| COc1cc(CNc2ccc3[nH]c(=O)[nH]c3c2)cc(Br)c1OCc1ccccc1F | ? | ? |
| Cc1ccc(C)c(NC(=O)Nc2nnc(N(CC(C)C)CC(C)C)s2)c1 | ? | -10% |
| CCn1c(C)c(C)c2cc(C(=O)N3CCN(c4cccc(C)c4C)CC3)ccc21 | -7% | -42% |
| C[C@H]1O[C@H](O[C@H]2[C@H](O)[C@@H](O)[C@@H](O[C@H]3[C@H](O)[C@@H](O)C(O)O[C@H]3CO)O[C@H]2CO)[C@H](O)[C@@H](O)[C@H]1N[C@H]1C=C(CO)[C@@H](O)[C@H](O)[C@@H]1O (some centres undefined) | 10% | / |
| Cc1ccc(-n2ncc3c(N(C)C)ncnc32)cc1Cl | 47%[activator] | 11% |
| CCc1ccc(Oc2c(C(F)(F)F)oc3c(CN4CCC(C)CC4)c(O)ccc3c2=O)cc1 | -10% | -2% |
| O=C(Cc1ccccc1)N(Cc1cccnc1)c1nc2c(F)cccc2s1 | ? | -44% |
| Cc1ccc(NC(=O)c2c(Nc3ccccc3C)sc(C(=O)c3ccccc3)c2N)cc1 | ? | ? |
| O=C(Nc1cc(Cl)cc(Cl)c1)c1ccc(F)c(S(=O)(=O)N2CCCCCC2)c1 | -10% | 1% |
| COc1cc(C)ccc1OCCSc1nc2ccc(NC(=O)c3ccccc3F)cc2s1 | -11% | -15% |
| CCc1ccc(S(=O)(=O)c2nnn3c2nc(N2CCC(C)CC2)c2cc(Cl)ccc23)cc1 | -4% | ? |
| COc1ccc(N2CCN(C(=O)c3cccc(-n4c(C)nc5cccnc54)c3)CC2)cc1 | ? | ? |
| COc1ccc(-c2noc(CCC(=O)NCc3ccc(C)cc3)n2)cc1 | -18% | ? |

Compound activity from PubChem BioAssay.
